Compound activity (PubChem BioAssay)
LANA-H2B inh – blocks KSHV LANA binding to histone H2A/H2B | cell-free LANA-H2A/H2B peptide, fluorescence polarization | inhibition, % (no concentration beside the values) | 320,000 compounds, 0.6% hits | Q9QR71; in the data active = inhibition mostly above about 10%, no sharp cut-off; inactive = mostly below about 6.7%;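 also: stock transfer was 7.5 nL into about 10 µL; 0% = median of vehicle wells and 100% = median of positive control wells; one replicate is shown; the record names a cut of 25% in any replicate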
Target sequence (Q9QR71 whole entry, looked up): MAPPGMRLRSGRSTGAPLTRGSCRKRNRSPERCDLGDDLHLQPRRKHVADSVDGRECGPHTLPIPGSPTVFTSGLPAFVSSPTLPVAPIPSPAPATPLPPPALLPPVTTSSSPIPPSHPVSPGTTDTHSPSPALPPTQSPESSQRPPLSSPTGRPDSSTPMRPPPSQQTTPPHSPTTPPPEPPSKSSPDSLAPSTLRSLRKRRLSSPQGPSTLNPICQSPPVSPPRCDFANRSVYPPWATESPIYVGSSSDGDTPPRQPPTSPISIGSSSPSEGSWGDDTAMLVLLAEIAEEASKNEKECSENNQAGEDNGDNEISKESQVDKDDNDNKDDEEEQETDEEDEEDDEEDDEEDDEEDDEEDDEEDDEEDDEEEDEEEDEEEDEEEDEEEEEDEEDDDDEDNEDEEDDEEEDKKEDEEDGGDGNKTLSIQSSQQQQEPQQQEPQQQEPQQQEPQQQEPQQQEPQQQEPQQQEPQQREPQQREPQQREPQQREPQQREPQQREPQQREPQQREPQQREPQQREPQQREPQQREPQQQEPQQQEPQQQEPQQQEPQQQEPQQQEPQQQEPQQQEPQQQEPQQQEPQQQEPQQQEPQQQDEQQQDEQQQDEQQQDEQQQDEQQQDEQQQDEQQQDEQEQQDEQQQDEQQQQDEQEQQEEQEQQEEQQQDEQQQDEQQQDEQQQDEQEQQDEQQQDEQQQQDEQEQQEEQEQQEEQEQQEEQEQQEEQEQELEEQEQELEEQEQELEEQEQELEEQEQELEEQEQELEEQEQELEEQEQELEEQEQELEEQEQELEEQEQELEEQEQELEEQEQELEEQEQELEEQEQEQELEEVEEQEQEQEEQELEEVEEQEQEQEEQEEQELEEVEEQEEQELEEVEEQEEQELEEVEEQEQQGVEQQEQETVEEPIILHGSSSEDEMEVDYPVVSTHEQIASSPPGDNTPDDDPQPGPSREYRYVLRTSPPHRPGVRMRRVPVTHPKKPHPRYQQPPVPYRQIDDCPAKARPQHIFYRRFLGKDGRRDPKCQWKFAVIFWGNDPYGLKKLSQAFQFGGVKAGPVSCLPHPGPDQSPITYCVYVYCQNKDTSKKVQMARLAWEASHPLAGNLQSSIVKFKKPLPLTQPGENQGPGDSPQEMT
ALR inh – blocks human ALR sulfhydryl oxidase activity; AID 485317; P55789; purified ALR, DTT oxidation, H2O2 HRP-luminol luminescence; 290,000 compounds, 3.8% hits; inhibition, % (concentration not given with the values);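 active = mean and each replicate at 75% or more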;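 also: stock transfer was 7.5 nL into about 7.5 µL; 0% = neutral wells and 100% = wells with inactivated enzyme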
FGF22 binding – FGF22 (human) thermal shift binding; Q9HCT0; recombinant FGF22 thermal shift, SYPRO orange fluorescence; percent of sucrose octasulfate shift, DMSO zero; calls only at 9.99 µM; 340,000 compounds, 1.5% hits; AID 651658;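 active = melting point raised past a set limit in the mean and every replicate; three in four hits are not shown here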
HNF4A DNA FP – change in binding of human HNF4 alpha to DNA | HNF4a-FITC DNA binding, fluorescence polarization, 1 h | activity change, % at 10 µM | 360,000 compounds, 0.3% hits | AID 1224865; in the data active = activity change above about 30%, passing the limit was not always enough;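 also: controls were the assay level and a saturating level of protein; the project sought stronger binding though the title names inhibitors; some compounds called inactive have numbers as strong as hits; positive values seem to mean higher polarization but the record does not say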
E coli growth – inhibitors of Escherichia coli growth; OD600, 23 h; stronger effect = lower value; OD600 absorbance (test concentration not listed); 330,000 compounds, 0.21% hits;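 active = OD600 absorbance below the run mean of sample wells minus 3.6 SD, in any replicate, cut at about 0.56 in these data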;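 also: stock transfer was 300 nL into about 60 µL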
Beta2AR agonist – activates human beta-2 adrenergic receptor causing internalization; Am2.2-beta2AR cells, FAP receptor internalization, flow cytometry; reference of the scale not given here; 340,000 compounds, 0.43% hits; P07550; response, % (concentration not given with the values);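 active = response above a set limit, near 3 SD of response in nonfluorescent compounds, cut at about 42% in these data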;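 also: stock transfer was 100 nL into about 11 µL; a reference agonist was the positive control; negative values mostly stem from fluorescent compounds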
UCH37 inh – blocks the human deubiquitinase UCH37; Q9Y5K5; purified proteasome/UCH37, Ub-AMC cleavage fluorescence; inhibition, % (test concentration not listed); 330,000 compounds, 0.33% hits;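 active = mean of two replicates above 20%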;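 also: 0% = compound-free wells with enzyme and 100% = wells lacking proteasome; stock transfer was 100 nL into about 20 µL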
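Signal – fluorescence, ex 355 nm, em 460 nm · System – Proteasome-bound UCH37 · Input – 0.15 nM proteasome as dispensed · Timing – 30 min preincubation with enzyme, 25 min cleavage at room temperature · Read-out basis – percent inhibition of cleavage signal versus uninhibited and no-proteasome wells · Medium – Tris-HCl pH 7.4 with ATP-MgCl2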
Starred values were filed as active, the others as inactive; i = inactive; . = no result given; & = joins results of further samples. Not all compounds are listed (hit frequency here may not be typical).

FGF22 binding	HNF4A DNA FP	UCH37 inh	E coli growth	ALR inh	LANA-H2B inh	Beta2AR agonist	molecule
i	-1.6	0.8	0.71	-5	-7.6	-1	CN(Cc1ccccc1)CC(O)COc1ccc(CNCCCOc2cccnc2)cc1 (stereo unspecified)
i	3.8	0.9	0.69	-6	2.0	1	COc1cc(CN2CCNC(=O)C2CC(=O)N(C)CCCN2CCOCC2)cc(OC)c1 (stereo unspecified)
.	0.4	0.7	0.72	-8	-2.9	3	COC(=O)c1c(NC(=O)CN2C(=O)C(=O)N(CC(C)C)C2=O)sc2c1CCCCC2
.	-2.3	-0.7	.	-8	6.0	4	COc1ccccc1-c1n[nH]c2c1[C@H](C)CC[C@H]2C(C)C
i	4.1	-32	0.76	-12	-1.5	-7	CSc1nc2ccc(NC(=O)c3ccc(Cl)s3)cc2s1
i	-2.7	0.3	0.7	-9	1.8	3	O=C(Nc1ccc(S(=O)(=O)N2CCOCC2)cc1)c1c(F)cccc1F
.	-2.0	3.3	0.71	-1	7.6	-10	CCC(C)NC(=O)CSc1nc2ccccc2c(=O)n1Cc1ccc(OC)cc1 (stereo unspecified)
i	6.3&-3.1	2.3	0.7	4	0.2	2	CCC1Nc2ncnc(N3CCOCC3)c2N(Cc2ccc(Br)cc2)C1=O (stereo unspecified)
i	3.6	-28	0.72	-6	-0.7	7	Cc1ccn2c(=O)cc(C)nc2c1
.	1.2	5.0	0.69	37	-2.1	-3	COc1ccc(CC(=O)OCCN(C)C)cc1
i	-2.1	1.9	0.68	-4	-1.8	2	COc1cccc(OCC(=O)N(C)Cc2nc(-c3cccc(C)c3)no2)c1
.	-3.2	-8.0	0.67	.	-3.0	0	COc1ccc(/C=C/c2ccncc2)c2ccccc12
i	1.1	1.1	0.65	0	-0.1	1	O=C(Nc1ccnn1C1CCN(C/C=C/c2ccccc2)CC1)c1ccccc1
.	0.6	3.6	0.69	.	4.6	-3	CCN(CC)S(=O)(=O)N1CCC(C(=O)NC2CCCc3ccccc32)CC1 (stereo unspecified)
i	-1.6	0.8	0.74	7	-1.6	-3	N/C(=N\OC(=O)CSc1ccccc1)c1ccncc1
i	1.6	7.5	0.65	20	-2.9	6	O=C1c2ccccc2NC(c2cccc([N+](=O)[O-])c2)N1O (stereo unspecified)
.	2.5	-425	0.76	99*	3.4	18	CNC(=O)c1ccc(-c2sc3nc(N4CCOCC4)c4c(c3c2N)CC(C)(C)OC4)o1
i	-0.5	4.0	0.66	1	-3.9	3	Cc1cc(=O)[nH]c(Nc2cccc(Cl)c2C)n1
.	1.4	0.3	0.77	-1	-0.2	-3	COc1ccc(NC(=O)Nc2ccccc2C(=O)N2CCCC2)cc1
.	-9.0	12	0.74	-2	2.2	-44	O=C1/C(=C\c2ccc(-c3ccccc3Cl)o2)SC(=S)N1CC1CCCO1 (stereo unspecified)
i	-1.4	1.8	0.7	-2	0.8	-1	COc1ccc(C(=O)N/C(=C\c2cn(S(=O)(=O)N(C)C)c3ccccc23)C(=O)N2CCN(C)CC2)cc1
.	3.2	2.6	0.71	-2	-1.7	-7	CC(=O)c1ccc(NC(=O)CSc2nnc(-c3ccoc3C)n2Cc2ccccc2)cc1
i	-3.3	-64	0.66	65	3.5	4	Cc1cccn2c(=O)c3cc(S(=O)(=O)c4ccccc4)c(=N)n(Cc4ccco4)c3nc12
i	1.2	.	.	-6	1.3	3	Cc1ccc(OCC(=O)N/N=C/c2cn(Cc3ccccc3)c3ccccc23)cc1
i	0.5	4.5	0.62	1	0.7	-9	Clc1cc(Br)ccc1OCCN1CCOCC1
.	-0.7	3.8	0.74	8	3.2	3	COCCn1c(C)cc(C(=O)COC(=O)CNC(=O)c2ccccc2)c1C
i	-2.1	i	0.69	-1	4.7	-2	Cc1c(CC(=O)NCC(=O)NCC(=O)O)c(=O)oc2cc3c(cc12)CCC(C)(C)O3
i	1.2	17	0.74	-5	-5.4	-6	O=c1cc(N2CCc3ccccc3C2)[nH]c(=O)n1-c1ccc(Cl)cc1
.	1.5	2.3	0.73	4	-1.2	-2	CCc1nnc(NC(=O)CSc2nnc(-c3ccoc3C)n2-c2ccc(C)cc2)s1
i	-0.7	4.4	0.74	-5	-2.5	24	COc1cccc2cc(C(=O)NCc3ccc(F)cc3)c(=N)oc12
i	1.9	0.7	0.73	.	3.6	1	O=C(Cn1cccn1)c1ccccc1
.	3.5	1.7	0.74	-8	-4.3	0	CC(C)(C)NC(=O)CN(Cc1cccnc1)C(=O)c1csnn1
i	0.3	0.7	0.69	.	-2.0	-5	COc1ccc(-c2c[n+]3c(n2-c2ccccc2)SCC3)cc1OC
i	0.5	-0.7	0.69	17	4.6	3	O=C(CCCCl)NC1=NN(c2ccccc2)C(=O)C1
.	2.5	0.5	0.72	-2	-8.9	-4	CCC(NS(=O)(=O)c1c(C)[nH]c(=O)[nH]c1=O)C12CC3CC(CC(C3)C1)C2 (stereo unspecified)
i	-1.0	4.7	0.67	-9	0.5	-4	Fc1ccc(Sc2ccccc2CNC2=NCCN2)cc1
i	-4.2	-1.5	0.68	13	-5.0	-5	CCc1ccc(CN(C)C(=O)CCc2nnc(COc3ccccc3)o2)cc1
i	0.0	7.0	0.68	.	-1.6	11	CC(C)n1nc(C(=O)Oc2cccc(Cl)c2Cl)c2ccccc2c1=O
i	-2.2	1.8	0.74	1	4.5	-1	Cc1cc(CNC(=O)C2CCC(=O)N(Cc3cccc(C(F)(F)F)c3)C2)no1 (stereo unspecified)
i	1.8	2.3	0.69	.	.	3	CCc1nc2ccc(C(=O)N(C)CC(=O)Nc3ccc(F)c(F)c3F)cc2nc1CC
i	-1.7	1.0	0.68	1	2.1	2	Cc1ccc(C)c(S(=O)(=O)N2CCN(C(=O)[C@@H]3CCCN3C(=O)c3cccs3)CC2)c1
i	-1.9	3.1	0.69	6	-1.6	10	O=C(NCc1ccccc1)C(c1ccc(F)cc1)N(C(=O)c1csnn1)c1ccccc1 (stereo unspecified)
i	3.0	0.7	0.68	2	6.2	5	O=C(COC(=O)c1c(F)cccc1Cl)NC1CCCC1
i	3.2	-7.9	0.7	.	.	2	COC(=O)c1cc(NC(=O)COC(=O)CCc2c[nH]c3ccccc23)cc(C(=O)OC)c1
.	2.5	0.2	0.68	-10	3.1	3	O=C(CSc1nnc(CNc2ccc(F)cc2)o1)OC1CCCCC1
i	0.0	6.7	0.65	51	-0.9	3	O=C(/C=C/c1cccs1)N1CCN(c2ccc(F)cc2)CC1
i	1.6	0.9	0.69	0	-0.4	-9	Cc1[nH]c(-c2ccc(F)cc2)cc1C(=O)N1CCN(c2ccccc2F)CC1
i	-4.7	-64	0.74	11	2.8	2	CCCOc1cccc(C2C(C(=O)c3cc4ccccc4o3)=C(O)C(=O)N2c2cc(C)on2)c1 (stereo unspecified)
i	1.0	-3.1	0.63	24	-0.3	-10	O=S(=O)(CCc1ccncc1)Cc1ccc2c3c(cccc13)CC2
i	-3.7	0.2	0.63	34	2.0	10	CCOc1ccc(NC(=O)[C@@H]2CCCN2C(=O)c2cccs2)cc1S(=O)(=O)N1CCCCC1
i	0.5	2.1	0.7	29	-0.9	-9	O=C(NCC(c1ccco1)N1CCc2ccccc21)c1c(F)cccc1F (stereo unspecified)
.	0.7	-103	0.7	-24	-1.7	-5	CC1=C(C(=O)Nc2ccc(F)cc2)C(c2ccncc2)C2=C(CCCC2=O)N1 (stereo unspecified)
.	-1.8	0.4	0.71	-13	4.7	6	CC(=O)c1cccc(NC(=O)N2CCCC2C(=O)NCc2ccc(C)cc2)c1 (stereo unspecified)
i	4.4	-2.7	0.72	1	1.5	-5	COc1ccc(OC)c(C(=O)NC(CC(N)=O)c2ccc(N3CCCCCC3)c([N+](=O)[O-])c2)c1 (stereo unspecified)
.	-26	-67	.	-2	0.5	1	C[N+](C)(CCCCCC[N+](C)(C)CCCN1C(=O)c2cccc3cccc(c23)C1=O)CCCN1C(=O)c2cccc3cccc(c23)C1=O
i	1.5	3.1	0.66	-9	-2.6	3	C=CCNC(=O)c1ccc(-n2cccc2)cc1
.	-1.9	1.9	0.72	-1	-0.3	-3	O=C(c1ccccc1)N(NC(=O)C(O)(c1ccccc1)c1ccccc1)c1cccc(F)c1
.	-0.4	1.0	0.72	-3	-3.2	23	O=S(=O)(c1ccc(Cl)cc1)n1ccc(-c2cccc(OCc3c(F)cccc3Cl)c2)n1
i	0.9	1.2	0.68	-4	2.4	-1	O=C(Nc1ccc(N2CCOCC2)nc1)c1c(F)cccc1F
.	0.6	4.8	0.75	0	1.0	4	CCOc1cc(-c2nc(-c3ccccc3OC)no2)cc(OCC)c1OCC

(more compounds)
FGF22 binding	HNF4A DNA FP	UCH37 inh	E coli growth	ALR inh	LANA-H2B inh	Beta2AR agonist	molecule
i	-5.3	1.7	0.69	.	.	3	COc1ccc(CNC(=O)C(C)N2C(=O)NC3(CCCCCCC3)C2=O)cc1 (stereo unspecified)
.	-0.5	8.3	0.71	.	-1.5	-4	Cc1ccccc1NC(=O)CSC(N)=O
i	-1.8	4.6	0.68	1	-4.6	5	Cc1ccc(-c2n[nH]c3c2C(c2ccccc2)N(c2ccc(C(=O)O)cc2)C3=O)cc1 (stereo unspecified)
i	-20	2.5	0.7	-15	-4.1	3	COc1ccc(NC(=S)N2CCN(Cc3cccc(F)c3)CC2)c(OC)c1
i	-1.2	-0.4	0.69	.	.	4	COc1cc(CC(=O)OCC(=O)NC2CCCCC2C)cc(OC)c1OC (stereo unspecified)
i	1.9	3.5	0.73	-1	-2.9	10	CCOc1cc(C(=O)Nc2cc3c(cc2N2CCOCC2)n(C)c(=O)n3C)cc(OCC)c1OCC

7 compounds already listed, sorted by formula weight, lowest first.
FGF22 binding	HNF4A DNA FP	UCH37 inh	E coli growth	ALR inh	LANA-H2B inh	Beta2AR agonist	molecule
i	0.9	1.2	0.68	-4	2.4	-1	O=C(Nc1ccc(N2CCOCC2)nc1)c1c(F)cccc1F
i	-1.2	-0.4	0.69	.	.	4	COc1cc(CC(=O)OCC(=O)NC2CCCCC2C)cc(OC)c1OC (stereo unspecified)
i	-20	2.5	0.7	-15	-4.1	3	COc1ccc(NC(=S)N2CCN(Cc3cccc(F)c3)CC2)c(OC)c1
i	-1.8	4.6	0.68	1	-4.6	5	Cc1ccc(-c2n[nH]c3c2C(c2ccccc2)N(c2ccc(C(=O)O)cc2)C3=O)cc1 (stereo unspecified)
.	-1.9	1.9	0.72	-1	-0.3	-3	O=C(c1ccccc1)N(NC(=O)C(O)(c1ccccc1)c1ccccc1)c1cccc(F)c1
.	-0.4	1.0	0.72	-3	-3.2	23	O=S(=O)(c1ccc(Cl)cc1)n1ccc(-c2cccc(OCc3c(F)cccc3Cl)c2)n1
i	1.9	3.5	0.73	-1	-2.9	10	CCOc1cc(C(=O)Nc2cc3c(cc2N2CCOCC2)n(C)c(=O)n3C)cc(OCC)c1OCC
